GIV-Gai inh: inhibitors of GIV GBA-motif binding to rat Galpha-i3; P08753; AID 1224905; percent of control (FP), % (concentration not given with the values); 0.42% of 210,000 active; Galpha-i3/FITC-GIV peptide fluorescence polarization, 90 min; active compounds read low; scaled: aluminum fluoride 0%, vehicle 100%;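 active = replicate mean at 85% of control or lower, very high polarization wells dropped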;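 note: wells of about 15 µL received 100 nL stock; the first replicate is given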
Target sequence (P08753 whole entry, looked up): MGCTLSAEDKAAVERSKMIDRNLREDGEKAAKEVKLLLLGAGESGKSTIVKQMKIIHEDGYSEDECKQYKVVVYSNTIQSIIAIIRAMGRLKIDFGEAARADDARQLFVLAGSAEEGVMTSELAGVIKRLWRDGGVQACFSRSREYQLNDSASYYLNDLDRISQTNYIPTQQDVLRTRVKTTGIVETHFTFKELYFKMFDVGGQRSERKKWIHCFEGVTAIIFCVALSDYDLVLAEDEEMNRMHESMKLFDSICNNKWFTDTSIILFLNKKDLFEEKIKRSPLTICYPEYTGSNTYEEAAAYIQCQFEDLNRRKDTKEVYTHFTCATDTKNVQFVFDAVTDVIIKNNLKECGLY
HCMV NEC inh: cytomegalovirus nuclear egress complex inhibition. HTRF UL50-UL53 interaction, normalized percent inhibition. inhibition, % (test concentration not listed). 0.15% of 190,000 active. AID 1918969;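 active = both replicates at 50% or more, plus weaker picks with an unusually low signal ratio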;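 note: stock transfer was 100 nL into about 20 µL; 0% = negative control wells and 100% = wells with untagged competitor protein; inactives centre near -12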
Sa growth 42C: inhibitors of Staphylococcus aureus growth at 42 °C | relative growth, % (concentration not given with the values) | S. aureus RN4220 growth, OD600, 20 h; active compounds read low | 0.53% of 170,000 active | AID 720641;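 active = growth at 42 °C up to 50% and 20 or more points under that at 30 °C, or under 10% at both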;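 note: 300 nL library stock went into each well; scaled to the means of positive and negative controls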
Sa growth 42C second temp: also measured in Sa growth 42C; calls as there; relative growth, %; measured here: growth at 30 °C;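 optical density after 20 h as mean of two plates; 100% = untreated growth and lower means inhibition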
Numbers without * were called inactive; x = no result given; & = joins results of further samples.

SMILES	GIV-Gai inh	HCMV NEC inh	Sa growth 42C	Sa growth 42C second temp
CCOC(=O)Cn1c(=O)oc2cc(S(=O)(=O)N3CCCC3)ccc21	102	x	104	94
CN(Cc1ccccc1)C(=O)C1CCN(S(C)(=O)=O)CC1	101	-11	98	84
Cc1ccc(SCC(=O)N/N=C/c2ccco2)cc1	100	-42	90	82
COC(=O)c1cccc(CSC(=S)N2CCCC2)c1	97	-4	103	88
CC(C#N)Sc1nc2ccc(Br)cc2c(=O)n1Cc1ccco1 (stereo unspecified)	x	-16	66	94
Cc1ccccc1NC(=O)NC(N)=O	100	-12	90	88
CC(=O)n1c2c(c3ccccc31)OC(N)=C(C#N)C2c1ccc(Cl)cc1Cl (stereo unspecified)	111	-40	98	87
Cc1ccc(C(=O)O)cc1N1CCCC1=O	98&116	7	78	85
O=C(CSc1nc2ccsc2c(=O)n1-c1ccc(F)cc1)c1ccc(O)c(O)c1	103	-23	45	23
N#C/C(=C\c1cccc(F)c1)c1nc(-c2cc3ccccc3oc2=O)cs1	112	-46	100	90
CC(C)(C)c1nc(S(=O)(=O)c2ccccc2)c(NCc2ccccc2)o1	101	x	72	104
CCCCCOc1ccc(C2Oc3ccccc3C3CC(c4ccc(C)cc4)=NN32)cc1 (stereo unspecified)	100	3	x	x
CC(C)c1ccc(S(=O)(=O)N2CCN(C(=O)CN3C(=O)c4ccccc4C3=O)CC2)cc1	x	-25	88	95
CCN1CCN(c2cc(C)c3cc(NC(=O)CCC(=O)Nc4ccc(OC)c(OC)c4)ccc3n2)CC1	106	3	92	89
CSc1nc2ccnn2c(=O)[nH]1	99	-9	109	77
NNC(=O)CNC(=O)c1ccc(S(=O)(=O)N2CCOCC2)cc1	109	3	96	86
Cc1nc(C)c(C(=O)OC(C)C(=O)Nc2ccc(C(N)=O)cc2)s1 (stereo unspecified)	x	-16	88	92
N#CC1=C(N)C(C#N)(C#N)C(c2ccccc2)C2=C1CCCC2 (stereo unspecified)	x	-24	56	54
CCOc1ccc(-c2n[nH]c3c2cnc2ccc(C)cc23)cc1	97	-30	x	x
Nc1c(-c2ccccc2)no[n+]1[O-]	x	-57	117	90
Cc1ccc(S(=O)(=O)NCCC(=O)NC2=NCCS2)cc1C	x	6	91	97
COc1ccc(CCNC(=O)CCc2nnc3n(CCC(C)C)c(=O)c4ccccc4n23)cc1OC	107	-10	107	92
Nc1sc2c(c1C(=O)O)CCCC2	170	x	89	74
CCN(CC)C(=O)C(c1ccccc1)c1ccccc1	x	-6	88	116
Cc1ccccc1-c1nn2c(=O)cc(CN3CCN(C(=O)/C=C/c4ccccc4)CC3)nc2s1	96	x	100	84
COc1cc(-c2cc(OC)c3c(C)oc(C)c3c(=O)c2)ccc1OC(=O)c1cccc(Cl)c1	116	-14	89	89
CCOC(=O)c1sc(NC(=O)C2CC2)cc1C	101	-18	91	86
Cc1cc(C)nc(NC#N)n1	x	-3	113	89
CCC(C(=O)O)n1c2ccccc2c2cn[nH]c(=O)c21 (stereo unspecified)	100	x	94	88
NCCC(=O)N1c2ccccc2Sc2ccc(Cl)cc21	99	-36	105	89
CC(C)N1C(=O)C(=Nc2ccc(C#N)cc2)c2ccccc21	x	-7	87	89
CCC(C)(C)NC(=O)Cn1[nH]c(=O)c2ccccc2c1=O	x	-24	99	91
c1ccn2cc(CN3CCCCC3)nc2c1	x	-12	99	81
Cc1ccc(-c2nc(-c3ccc4c(c3)[nH]c(=O)c(=O)n4C(C)C)no2)cc1F	104	12	x	x
CCCc1cc(-c2onc(C)c2-c2ccc(C(=O)OCC)o2)c(O)cc1OC	x	-15	86	94
COC(=O)c1ccsc1NC(=O)CN1CCN(S(=O)(=O)c2ccc(Cl)cc2)CC1	105	-16	97	95
COc1ccc(-c2cnc3c(-c4ccccc4)cnn3c2N)cc1OC	104	-25	x	x
CCOC1(c2ccccc2)OC(=O)c2ccccc21 (stereo unspecified)	102	-13	93	77
COc1ccc(-c2cc3c(=O)n(CC(=O)NCc4cccc(Br)c4)ncn3n2)cc1	119	3	101	89
O=c1cc(-c2ccc3c(c2)OCO3)oc2ccccc12	101&102	18&-20	91&82	82&86
C1=CN(c2ccccc2)C(C=NCc2ccccc2)=CS1	x	-4	94	124
Cc1cccc(C)c1NC(=O)C(NS(=O)(=O)c1ccc2c(c1)CCC(=O)N2)c1ccccc1 (stereo unspecified)	100	-37	103	88
Cc1ccc(S(=O)(=O)[C@H]2CS(=O)(=O)C[C@@H]2NCc2ccc(S(N)(=O)=O)cc2)cc1	105	1	x	x
CC1=C(C(=O)OCCOc2ccccc2)C(c2ccccc2[N+](=O)[O-])NC(=O)N1C (stereo unspecified)	105	-4	x	x
CCc1ccc(-c2nn(CC(=O)NC3CCCC3)c3c2cnc2ccc(C)cc23)cc1	97	x	76	92
O=C(CCN=C1NS(=O)(=O)c2ccccc21)N1CCN(c2ccc(C(F)(F)F)cn2)CC1	x	-13	76	92
O=C(COC(=O)c1ccc(N2CCCC2=O)cc1)NCc1ccco1	x	6	94	96
CNC(=O)N1CCCC(c2cccc(C(=O)N3CCN(c4ccccn4)CC3)c2)C1 (stereo unspecified)	113	-6	x	x
CC(C)Sc1nnc(C2CC2)n1-c1ccccc1	x	-18	94	92
CC1(C)CC(=O)C2C(=Nc3ccccc3N=C2c2ccccc2)C1 (stereo unspecified)	x	-2	102	81

New compounds follow:
SMILES	GIV-Gai inh	HCMV NEC inh	Sa growth 42C	Sa growth 42C second temp
Cc1ccc2ccc(C(Nc3ccccn3)c3ccc4c(c3)OCO4)c(O)c2n1 (stereo unspecified)	99	-6	76	79
CCCC(=O)N1CC(=O)Nc2ccc(Cl)cc2C1c1ccc(F)cc1 (stereo unspecified)	101	-10	79	92
CC(CCC(=O)O)[C@H]1CCC2C3C(=O)C[C@@H]4CC(=O)CC[C@]4(C)C3CC(=O)[C@@]21C (stereo partly specified)	x	-10	99	93
Cn1c(=O)c2ccccc2[s+]1-c1cccc2cccc(C(=O)O)c12 (stereo unspecified)	103	-30	94	94
COc1ccc2c(c1)Sc1ccccc1N2	x	-27	86	60
O=C(Cn1ncn2c(cc3ccccc32)c1=O)NCc1ccc(Cl)cc1	108	x	102	85
Cc1cc(Cl)n2ncnc2n1	x	-34	94	92
Oc1ccc(C2C=CCC2)cc1 (stereo unspecified)	105	-4	129	63
Cc1ccc(Cn2c(=O)c3ccccc3n3c(CCC(=O)N4CCC(N5CCCCC5)CC4)nnc23)cc1	102	-9	x	x
CCCCN=c1sc(C(=O)OC)cc(=O)n1CCCC	101	-29	80	89
CC1CC(=O)Nc2ccccc2N1C(=O)COC(=O)c1n[nH]c(=O)c2ccccc12 (stereo unspecified)	x	-37	80	90
O=S(=O)(c1cccc(C(F)(F)F)c1)N1CN2CN(C1)CN(S(=O)(=O)c1cccc(C(F)(F)F)c1)C2	103	-15	98	90
O=C1C2(c3ccccc3)CN3CC1(c1ccccc1)CN(C2)C3c1ccccc1O (stereo unspecified)	101	10	x	x
COc1ccc(C2C(C(=O)Nc3ccc(C)cc3)=C(C)Nc3ncnn32)cc1 (stereo unspecified)	101	-20	x	x
O=C1CC(CSc2nnnn2-c2ccccc2)=NN1c1nc2ccccc2[nH]1	102	x	83	67
Fc1ccc(Nc2nc(-c3ccncc3)nc3ccccc23)cc1	x	-29	107	86
N#Cc1ccc(C=Nc2ccc(I)cc2)cc1	x	-4	100	91
Cc1nc2nc(C)c(CCC(=O)NCc3ccccc3)c(C)n2n1	101	5	92	93
O=C(NC1CCS(=O)(=O)C1)c1ccc(Cn2c(SCc3ccc(Cl)cc3)nc3ccncc32)cc1 (stereo unspecified)	102	-3	x	x
CCCOC1=NOC2C3CCC(C3)C12 (stereo unspecified)	99	-18	83	82
O=C(NC1=NCCS1)C(c1ccccc1)c1ccccc1	x	-29	135	87
O=C(Cn1nc(Cc2cccnc2)c2ccccc2c1=O)N1CCN(c2ccccc2F)CC1	104	-34	106	89
COc1cccc(CC(=O)Nc2c(C(=O)N3CCN(c4ccccc4)CC3)oc3ccccc23)c1	107	-22	126	85
CCOc1ccccc1N(C)S(=O)(=O)c1ccc2c(c1)SC(C)C(=O)N2 (stereo unspecified)	109	x	87	42
CCOc1ccc(CNC(=O)CCS(=O)(=O)c2cc3c4c(c2)CCN4C(=O)CC3)cc1OC	103	x	103	92
O=C(Cc1cn2ccsc2n1)N/N=C1\CCc2ccccc21	x	-34	104	74
Cc1ccc(CNC(=O)c2sc3ccc(S(=O)(=O)N4CCCCC4)cc3c2N)cc1	104	2	106	85
O=C(Nc1nnc(N2CCCCCC2)s1)c1cc(-c2ccc(Br)cc2)on1	97	-8	90	63
Fc1ccc(Nc2ncnc3c2nc2n3CCCCC2)cc1Cl	105	1	x	x
Cc1ccc2c(n1)sc1c(=O)n(-c3cccc(C(F)(F)F)c3)nnc12	107	-7	95	95
N#Cc1nc(COc2ccccc2)oc1NCc1cccnc1	103	x	106	87
Cc1nc2nc3c(c(Nc4ccc(F)cc4)n2n1)CCC3	103	-1	x	x
Cc1cccc(-c2nc3cc(NC(=O)Cc4ccc(Cl)cc4)ccc3o2)c1	110	-62	105	84
CN1CCc2c(-c3cccs3)nc(OCc3ccccc3Br)c(C#N)c2C1	x	-30	126	37
COc1ccc(CCNC(=O)CSc2nc(O)cc(=O)[nH]2)cc1OC	109	1	90	101
COc1ccccc1N1C(=S)SC2CS(=O)(=O)CC21 (stereo unspecified)	x	-9	95	97
CCc1ccc(S(=O)(=O)c2nnn3c2nc(N2CCN(c4ccccc4)CC2)c2cc(Cl)ccc23)cc1	99	-32	94	86
Cc1nn(CCCC(=O)NC2CCCC2)c(=O)c2nccn12	103	x	96	89
O=C(CC1Nc2ccccc2NC1=O)Nc1ccc(F)cc1 (stereo unspecified)	102	-52	98	79
COc1cccc(OC)c1C(=O)Nc1ccc2c(c1)N(C(C)=O)CCC2	106	x	86	92
COc1ccc(OC)c(Nc2ncnc3c2cnn3-c2ccc(C)cc2)c1	98	x	100	85
CCCn1c(N)c(C(=O)COC(=O)Cn2cc(C(F)(F)F)ccc2=O)c(=O)[nH]c1=O	x	-14	102	91
O=C(NC(=O)N1CCSC1)c1c(F)cccc1Cl	102	16	96	93
C[C@]12C=C(C#N)C[C@@]1(C)C=C(C#N)C2	104	-26	88	84
CC1(c2ccccc2)CC(C)(C)N(C(=O)C(F)(F)F)c2ccccc21 (stereo unspecified)	105	x	106	88
Cn1ccc2cc(S(=O)(=O)N3CCN(C(=O)Nc4cccc(F)c4)CC3)ccc21	103	x	91	89
COCCCn1c(=N)c(C(=O)N2CCCCC2)cc2c(=O)n3cccc(C)c3nc21	104	-72	101	99
O=C(Nc1nc(CSc2nc3ccccc3s2)cs1)C1CC1	x	-11	84	86
O=C(CSC1=NCCN1)NC(c1ccccc1)c1ccccc1	x	-3	99	87
COc1ccc(C2C(C(=O)NC3CCCCC3)c3ccccc3C(=O)N2c2ccc(OC)cc2)cc1 (stereo unspecified)	102	x	80	85

6 entries drawn at random from those above:
SMILES	GIV-Gai inh	HCMV NEC inh	Sa growth 42C	Sa growth 42C second temp
COC(=O)c1ccsc1NC(=O)CN1CCN(S(=O)(=O)c2ccc(Cl)cc2)CC1	105	-16	97	95
Cc1ccc(CNC(=O)c2sc3ccc(S(=O)(=O)N4CCCCC4)cc3c2N)cc1	104	2	106	85
Cc1ccc(SCC(=O)N/N=C/c2ccco2)cc1	100	-42	90	82
CC1CC(=O)Nc2ccccc2N1C(=O)COC(=O)c1n[nH]c(=O)c2ccccc12 (stereo unspecified)	x	-37	80	90
CCOc1ccc(-c2n[nH]c3c2cnc2ccc(C)cc23)cc1	97	-30	x	x
O=C(NC(=O)N1CCSC1)c1c(F)cccc1Cl	102	16	96	93

(next part)
SMILES	GIV-Gai inh	HCMV NEC inh	Sa growth 42C	Sa growth 42C second temp
COc1ccc(N(CC(=O)NCCc2ccc(C)cc2)S(=O)(=O)c2c(C)nn(C)c2C)cc1	103	-27	110	89
CCOc1ccc(NC(=O)CCc2c(C)nc3cc(-c4ccccc4OC)nn3c2C)cc1	101	-23	97	88
O=C(CN1C(=O)c2cccnc2Sc2ccccc21)NCc1ccccn1	110	15	x	x
CCc1nnc(NC(=O)c2nc(S(=O)(=O)Cc3cccc(C)c3)ncc2Cl)s1	101	-33	11	31
CN1C(=O)CC(C(=O)O)SC1=Nc1cccc(F)c1 (stereo unspecified)	101	0	112	105
CCCN(CCC)CCNC(=O)Cn1cc2c(n1)-c1c(oc(C(=O)N3CCCC3)c1C)CC2	111	x	76	86
CC(=O)Oc1ccccc1OC(C)c1nn(C(C)=O)c2ccccc12 (stereo unspecified)	x	-2	91	90
CCOc1csc2nc(C)cc(C)c12	103	x	109	95
O=S(=O)(Cc1ccccc1)N1CCCC1c1ccc(Cl)cc1 (stereo unspecified)	101	-36	x	x
CC1=C(C(=O)Nc2ccc(C(=O)NCCc3ccc(S(N)(=O)=O)cc3)cc2)SCCO1	103	30	x	x

Taken from above, three compounds:
SMILES	GIV-Gai inh	HCMV NEC inh	Sa growth 42C	Sa growth 42C second temp
CCCN(CCC)CCNC(=O)Cn1cc2c(n1)-c1c(oc(C(=O)N3CCCC3)c1C)CC2	111	x	76	86
CC(=O)Oc1ccccc1OC(C)c1nn(C(C)=O)c2ccccc12 (stereo unspecified)	x	-2	91	90
CCOc1csc2nc(C)cc(C)c12	103	x	109	95

Screening results as filed in PubChem BioAssay.
